eIF4H FP inh – inhibitors of RNA binding by human eIF4H; eIF4H fluorescence polarization binding assay; inhibition, % at 35 µM; 0.94% of 290,000 active; AID 2012;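 active = 50% or more with normal probe brightness, or confirmed in later tests; about a fifth of its hits are not listed in these tables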;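 note: calls also rest on retests at 20 µM and on dose response follow-up; 0% = protein and probe with vehicle and 100% = probe without protein; strong numbers were not always called active; many hits fall short of the cut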
Yeast UUG start – yeast start codon fidelity modulation; S. cerevisiae UUG-firefly luciferase reporter, luminescence/redox ratio; activity score, % at 18.7 µM; 0.13% of 350,000 active;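 active = replicate mean at a twofold rise or more, about +100% in these data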;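 note: firefly luciferase made from a UUG start codon reports start codon fidelity; reporter light over untreated wells divided by growth signal over untreated wells; some hits fall short of that in this replicate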
MT1-MMP act inh – inhibitors of human MT1-MMP activation; HT1080 RFP-PRO-GFP cells, GFP/RFP ratio fluorescence, overnight; percent of plate control window, DMSO zero; AID 651647; P50281; 0.061% of 360,000 active; GFP/RFP ratio change, % at 20 µM;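 active = GFP/RFP ratio change of at least 30% with cell ATP level not reduced by more than half and red fluorescence within 50% of control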; note: strong numbers were not always called active
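Assay system: HT1080 RFP-PRO-GFP cells | Dosing: 20 µM single dose, 1% DMSO | Incubation: Cells overnight before dosing, compound overnight, 37 °C, 5% CO2 | Evaluation: GFP/RFP fluorescence ratio | Control set: DMSO-only wells and HT1080 RFP-L50D-GFP cell wells as references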
PABP polyA inh – blocks human PABP binding to poly(A) RNA; fluorescence polarization; inhibition, % at 35 µM; P11940; 1% of 290,000 active; AID 2014;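 active = 50% or more with normal probe brightness, or confirmed in later tests; about a fifth of its hits are not listed in these tables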;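 note: calls also rest on retests at 20 µM and on dose response follow-up; controls were probe without protein and protein plus probe with vehicle; some compounds called inactive have numbers as strong as hits; many hits fall short of the cut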
Rce1 inhib – blocks yeast Ras-converting enzyme. Q03530. yeast membranes, quenched prenylated peptide cleavage fluorescence. calls only. 0.27% of 290,000 active. AID 2563;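 active = fall in fluorescence gain of 50% or more versus controls, with final raw signal at or below 3038400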;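 note: plate controls were neutral control wells for no effect and wells lacking membranes for full effect; tested at 10 µM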
Target sequence (Q03530 whole entry, looked up): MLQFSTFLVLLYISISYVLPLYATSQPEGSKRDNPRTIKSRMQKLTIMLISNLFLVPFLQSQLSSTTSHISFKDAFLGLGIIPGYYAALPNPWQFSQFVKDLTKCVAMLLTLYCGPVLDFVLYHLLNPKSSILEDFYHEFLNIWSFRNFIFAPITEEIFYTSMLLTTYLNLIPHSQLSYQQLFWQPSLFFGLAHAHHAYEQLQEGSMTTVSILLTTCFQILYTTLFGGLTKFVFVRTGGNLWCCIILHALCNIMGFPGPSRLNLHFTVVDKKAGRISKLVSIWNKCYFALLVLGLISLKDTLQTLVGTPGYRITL
HIV Env fusion – blocks HIV Env-driven cell-cell fusion; HeLa-JRFL Env/CEM21 cell fusion, luciferase; AID 651610; 1.1% of 360,000 active; inhibition, % at 12.3 µM;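 active = mean replicate inhibition score of at least 50 and every replicate individually at or above 50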;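 note: 0% = plate neutral controls and 100% = maraviroc near 300 nM; one replicate is shown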
CSC inhib – cancer stem cell inhibition; cancer stem cell-like cells viability, luminescence; inhibition, % at 7.5 µM; 1.1% of 300,000 active;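 active = mean at 75% or more and at least half the replicates too; tested in HMLE shEcad cells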;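 note: 0% = median of negative and 100% = median of positive control wells; the first replicate is given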
eIF4H FP inh retest – second read-out of eIF4H FP inh, no call of its own (marks repeat the call); inhibition, %; compound at 20 µM; confirmation average;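 mean of two retest wells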
PABP polyA inh retest – second read-out of PABP polyA inh, no call of its own (marks repeat the call); inhibition, %; compound at 20 µM; confirmation repeats;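 mean of two retest wells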
MT1-MMP act inh RFP – also measured in MT1-MMP act inh; calls as there; RFP signal change, %; measured here: RFP expression control read;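 0 = vehicle wells; hits needed this value within 50% of zero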
Active calls of the source: *.

Screening CCn1c(SCC(=O)N2CCc3ccccc32)nnc1-c1c[nH]c2ccccc12 returned eIF4H FP inh 0, Yeast UUG start -18, MT1-MMP act inh -5, PABP polyA inh -2, Rce1 inhib inactive, CSC inhib -11 and MT1-MMP act inh RFP -12.
CCN(CC)C(=O)c1[nH]cnc1C(=O)Nc1ccc(Cl)cc1 was read as Yeast UUG start -13, MT1-MMP act inh 1, HIV Env fusion -12, CSC inhib -22 and MT1-MMP act inh RFP 0.
`O=C(NCc1ccco1)C1CC(=O)N(c2ccc(Cl)cc2)C1` (stereo not drawn) gave eIF4H FP inh 8, MT1-MMP act inh -1, PABP polyA inh -13, Rce1 inhib inactive, HIV Env fusion 5, CSC inhib -8 and MT1-MMP act inh RFP 0.
`CC(=O)N1CCC(=NNS(=O)(=O)c2ccc(C)c([N+](=O)[O-])c2)CC1` gave eIF4H FP inh -5, Yeast UUG start -11, MT1-MMP act inh 0, PABP polyA inh -1, Rce1 inhib inactive, HIV Env fusion -25, CSC inhib -6 and MT1-MMP act inh RFP 0.
Screening Cc1ccc(/C=N/Nc2nc(Cl)c(Cl)cc2Cl)s1 returned eIF4H FP inh -6, Yeast UUG start -18, MT1-MMP act inh 9, PABP polyA inh 0, Rce1 inhib inactive, HIV Env fusion -113, CSC inhib -8 and MT1-MMP act inh RFP 2.
`COc1ccc(Cl)cc1-n1c(C)cc(C(=O)O)c1C` gave eIF4H FP inh -1, Yeast UUG start -7, MT1-MMP act inh 5, PABP polyA inh -10, Rce1 inhib inactive, CSC inhib -9 and MT1-MMP act inh RFP 2.
Screening c1ccc(-c2csc(Nc3ccc4c(c3)OCO4)n2)cc1 returned Yeast UUG start -26, MT1-MMP act inh -2, HIV Env fusion inactive and MT1-MMP act inh RFP -3.
Screening C/C(=N\N1CCN(Cc2ccc(Cl)cc2)CC1)c1ccc(F)cc1 returned eIF4H FP inh -3, Yeast UUG start -11, MT1-MMP act inh 0, PABP polyA inh -2, Rce1 inhib inactive, HIV Env fusion 5, CSC inhib 7 and MT1-MMP act inh RFP -5.
O=C(C[C@H]1C/C=C\CC[C@@H](Cc2ccc(F)cc2)C(=O)OC[C@H]2CCCN2C1=O)N[C@H](CO)Cc1ccccc1 was read as Yeast UUG start 7, MT1-MMP act inh 2, HIV Env fusion 2 and MT1-MMP act inh RFP 0.
`COc1ccnc(Oc2ccc(C)cc2C)c1C#N` gave eIF4H FP inh 2, Yeast UUG start -4, MT1-MMP act inh 0, PABP polyA inh -4, Rce1 inhib inactive, HIV Env fusion -7, CSC inhib 0 and MT1-MMP act inh RFP -1.
Screening O=C(OCCN=C1NS(=O)(=O)c2ccccc21)c1cccc([N+](=O)[O-])c1 returned eIF4H FP inh 0, Yeast UUG start -18, MT1-MMP act inh 3, PABP polyA inh 9, Rce1 inhib inactive, HIV Env fusion 2, CSC inhib -10 and MT1-MMP act inh RFP 0.
O=C1CCCCC1C(Nc1ccc(Br)cc1)c1ccccc1 (stereo not drawn) was read as eIF4H FP inh -3, Yeast UUG start 41, MT1-MMP act inh 7, PABP polyA inh -10, Rce1 inhib inactive, HIV Env fusion 9, CSC inhib 69 and MT1-MMP act inh RFP -7.
For O=C1CC(c2ccc(F)cc2)C(n2cncn2)C(O)=C1C1NCCc2ccccc21 (stereo not drawn) the results were eIF4H FP inh 12, Yeast UUG start -22, MT1-MMP act inh -2, PABP polyA inh -8, Rce1 inhib inactive, HIV Env fusion -12, CSC inhib -12 and MT1-MMP act inh RFP 1.
For O=C(c1ccccc1-c1nc(-c2ccc(Cl)cc2)no1)N1CCCC1 the results were eIF4H FP inh -3, Yeast UUG start 0, MT1-MMP act inh -3, PABP polyA inh -5, Rce1 inhib inactive, CSC inhib -15 and MT1-MMP act inh RFP -5.
For Nc1ccc(Nc2ccccc2N)cc1 the results were eIF4H FP inh -2, MT1-MMP act inh 4, PABP polyA inh -1, Rce1 inhib inactive, HIV Env fusion -73, CSC inhib 3 and MT1-MMP act inh RFP 0.
`Cc1ccc(NC(=O)c2cccc3c2C(=O)N(C2CCCCC2)C3)cc1` gave eIF4H FP inh -6, Yeast UUG start -13, MT1-MMP act inh -8, PABP polyA inh -3, Rce1 inhib inactive, HIV Env fusion 14, CSC inhib 36 and MT1-MMP act inh RFP -3.
CC1(C)OC(=O)C=C(CC2NS(=O)(=O)OC3CCCCC23)O1 (stereo not drawn) was read as eIF4H FP inh 2, Yeast UUG start -24, MT1-MMP act inh -2, PABP polyA inh -4, Rce1 inhib inactive, CSC inhib 2 and MT1-MMP act inh RFP 3.
Screening Cc1cc(-c2csc(NC(=O)c3cc4ccccc4o3)n2)c(C)n1C returned eIF4H FP inh 98*, Yeast UUG start -22, MT1-MMP act inh 1, PABP polyA inh 12*, Rce1 inhib inactive, HIV Env fusion -8, CSC inhib 3, eIF4H FP inh retest 100*, PABP polyA inh retest 72* and MT1-MMP act inh RFP 4.
For CC1(C)Nc2ccccc2C(=O)N1c1ccccc1 the results were eIF4H FP inh 5, Yeast UUG start -29, MT1-MMP act inh -3, PABP polyA inh 9, Rce1 inhib inactive, HIV Env fusion -52, CSC inhib -1 and MT1-MMP act inh RFP 3.
Screening COc1ccc(-c2cc(C(=O)Nc3cc(OC)c(OC)c(OC)c3)no2)cc1 returned eIF4H FP inh -9, Yeast UUG start 0, MT1-MMP act inh -6, PABP polyA inh 0, Rce1 inhib inactive, HIV Env fusion 22, CSC inhib 3 and MT1-MMP act inh RFP -3.
Screening COc1ccc(NC(=O)C(c2ccc(C)cc2)N(C)C(=O)Cc2cccs2)cc1 (stereo not drawn) returned eIF4H FP inh 63*, MT1-MMP act inh -25, PABP polyA inh 5.4*, Rce1 inhib inactive, CSC inhib -10, eIF4H FP inh retest 92*, PABP polyA inh retest 98* and MT1-MMP act inh RFP -18.
COC(=O)c1ccc(NC(=O)C(=O)N2CCN(C(=S)Nc3cccc(OC)c3)CC2)cc1 was read as eIF4H FP inh -5, Yeast UUG start -14, MT1-MMP act inh 1, PABP polyA inh 2, Rce1 inhib inactive, HIV Env fusion 9, CSC inhib 14 and MT1-MMP act inh RFP -2.
`CCCSc1nnc(CN2CCOCC2)n1C` gave eIF4H FP inh -6, Yeast UUG start 11, MT1-MMP act inh 2, PABP polyA inh 8, Rce1 inhib inactive, HIV Env fusion 6, CSC inhib -31 and MT1-MMP act inh RFP 8.
For CCOC(=O)c1cccc(NC(=S)N2CCN(c3ncc4c(=O)c(C(=O)O)cn(CC)c4n3)CC2)c1 the results were eIF4H FP inh -3, MT1-MMP act inh -3, PABP polyA inh -4, Rce1 inhib inactive, HIV Env fusion 8, CSC inhib 8 and MT1-MMP act inh RFP -1.
Screening COc1ccc(C)cc1S(=O)(=O)N(CC(=O)Nc1cccc([N+](=O)[O-])c1)c1cc(C)cc(C)c1 returned eIF4H FP inh -2, Yeast UUG start -19, MT1-MMP act inh -2, PABP polyA inh -13, Rce1 inhib inactive, CSC inhib -2 and MT1-MMP act inh RFP -3.
Screening COc1ccc(OC)c(S(=O)(=O)n2cnc3cc(C)c(C)cc32)c1 returned eIF4H FP inh 0, Yeast UUG start -10, MT1-MMP act inh 3, PABP polyA inh -1, Rce1 inhib inactive, CSC inhib -15 and MT1-MMP act inh RFP 2.
For CCS(=O)(=O)c1ccc(O)c(NC(=O)Nc2ccc(C(C)(C)C)cc2)c1 the results were eIF4H FP inh 9, Yeast UUG start -21, MT1-MMP act inh 0, PABP polyA inh 5, Rce1 inhib inactive, HIV Env fusion 3, CSC inhib -16 and MT1-MMP act inh RFP -5.
CCCOC(=O)c1ccc(NC(=O)c2ccccc2OC)cc1 was read as eIF4H FP inh 1, MT1-MMP act inh 4, PABP polyA inh 1, Rce1 inhib inactive, HIV Env fusion -5, CSC inhib 0 and MT1-MMP act inh RFP 0.
Screening CCOC(=O)N1CCN(C(=O)Cn2c(C)cc3ccccc3c2=O)CC1 returned eIF4H FP inh -6, Yeast UUG start -12, MT1-MMP act inh 1, PABP polyA inh 2, Rce1 inhib inactive, HIV Env fusion -21, CSC inhib -10 and MT1-MMP act inh RFP 5.
NC(=O)c1cccnc1Oc1ccc(Cl)cc1Cl was read as eIF4H FP inh 13, MT1-MMP act inh 2, PABP polyA inh 4, HIV Env fusion -14, CSC inhib -16 and MT1-MMP act inh RFP 0.
For CC1(C)CC(NS(=O)(=O)c2cccc3ccccc23)CC(C)(C)N1 the results were eIF4H FP inh 3, Yeast UUG start -16, MT1-MMP act inh -2, PABP polyA inh 1, Rce1 inhib inactive, HIV Env fusion -19, CSC inhib 5 and MT1-MMP act inh RFP 0.
CCCCCCCCS(=O)c1sc2nc(C)cc(C)c2c1N (stereo not drawn) was read as eIF4H FP inh -9, Yeast UUG start -11, MT1-MMP act inh 3, PABP polyA inh 17, Rce1 inhib inactive, CSC inhib -5 and MT1-MMP act inh RFP 1.
COc1ccc(C)cc1S(=O)(=O)N(CC(=O)N1CCCC1)c1ccc(C)cc1 was read as eIF4H FP inh -10, Yeast UUG start -14, MT1-MMP act inh -1, PABP polyA inh -1, Rce1 inhib inactive, HIV Env fusion -34, CSC inhib -7 and MT1-MMP act inh RFP 1.
Screening C=CCn1c(SCCC)nc(O)cc1=O returned eIF4H FP inh 0, MT1-MMP act inh 9, PABP polyA inh -3, Rce1 inhib inactive, CSC inhib -10 and MT1-MMP act inh RFP 3.
CCc1ccc(NC(=O)CSc2nnc(Cc3cccn3C)n2-c2ccc(F)cc2)cc1 was read as eIF4H FP inh -5, Yeast UUG start -10, MT1-MMP act inh 7, PABP polyA inh -26, Rce1 inhib inactive, HIV Env fusion 5, CSC inhib 6 and MT1-MMP act inh RFP -2.
`Cc1nnc(SCC(=O)NN2C(=O)NC3(CCCCC3)C2=O)s1` gave eIF4H FP inh 2, Yeast UUG start -4, MT1-MMP act inh -2, PABP polyA inh 7, Rce1 inhib inactive, HIV Env fusion -45, CSC inhib 5 and MT1-MMP act inh RFP 2.
Cc1ccc2c(c1)NC(=O)c1cccc([N+](=O)[O-])c1CO2 was read as eIF4H FP inh 11, PABP polyA inh -7, Rce1 inhib inactive, HIV Env fusion -104 and CSC inhib 6.
`C#CCSc1nnc(-c2ccc(OC)cc2)o1` gave eIF4H FP inh -4, Yeast UUG start -22, MT1-MMP act inh -6, PABP polyA inh -4, Rce1 inhib inactive, HIV Env fusion -133, CSC inhib -10 and MT1-MMP act inh RFP -12.
CCn1c(Cc2ccccc2)nnc1SCC(=O)N1CCCCC1 was read as eIF4H FP inh -3, Yeast UUG start -44, MT1-MMP act inh 4, PABP polyA inh -6, Rce1 inhib inactive, HIV Env fusion 3, CSC inhib -11 and MT1-MMP act inh RFP 2.
Cc1c(C(=O)N2CCCC2)c(S(=O)(=O)NCC(C)c2ccccc2)c(C)n1C (stereo not drawn) was read as eIF4H FP inh -6, Yeast UUG start -5, MT1-MMP act inh 5, PABP polyA inh 7, Rce1 inhib inactive, HIV Env fusion 7, CSC inhib 5 and MT1-MMP act inh RFP 7.
For CCOC(=O)/C(=N/Nc1ccccc1)Sc1nnc(CCc2ccccc2)n1-c1ccccc1 the results were eIF4H FP inh 10, MT1-MMP act inh -4, PABP polyA inh 2, HIV Env fusion -2, CSC inhib 5 and MT1-MMP act inh RFP 2.
For CC(=O)c1c(C)[nH]c(C(=O)Nc2ccccc2Cl)c1C the results were eIF4H FP inh 12, Yeast UUG start -13, MT1-MMP act inh -1, PABP polyA inh -1, Rce1 inhib inactive, HIV Env fusion -8, CSC inhib -12 and MT1-MMP act inh RFP -1.

Screening data (PubChem)

These rows are one share of the data. The share of hits here may be higher or lower than overall.
